Compound activity (PubChem BioAssay)
BasE inh = BasE siderophore biosynthesis inhibition | purified BasE, fluorescence polarization binding displacement | inhibition, % (no concentration beside the values) | actives 0.1% (n = 84,000);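 active = both replicates above 25% with normal brightness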;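 note: 0% = negative plate control signal and 100% = positive plate control signal; stock transfer was 100 nL into about 30 µL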
KSHV LANA nucl = LANA-nucleosome interaction inhibition. FITC-LANA1-23 / chicken nucleosome fluorescence polarization; hits give low values. z-score (test concentration not listed). actives 0.3% (n = 51,000). AID 720717;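 active = both repeat wells score below -2 in polarization z-score versus plate sample wells, excluding overly bright wells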;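 note: 100 nL library stock added to about 30 µL; numbers are from one replicate; some results filed as inactive read as strong as hits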
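Material: Purified chicken nucleosomes with FITC-labelled LANA N-terminal peptide (1-23) | Reagent: 50 nM FITC-LANA1-23 probe | Medium: TEN-BT buffer, pH 7.5 | Times: 10–45 min incubation at room temperature | Detection: Fluorescence polarization | Replication: Duplicates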
* marks the source's active call; other numbers are inactive results; x = not tested or not shown; & = joins results of further samples. This is a subset; rates above refer to the full screens.

SMILES	BasE inh	KSHV LANA nucl
Cc1ccc2oc(-c3ccccc3)cc(=NCCN3CCOCC3)c2c1	1.1	x
CC(Sc1nnc(N)s1)C(=O)Nc1nccs1 (configuration not stated)	-4.0	0.127
CCN1CCN(CCNC(=O)c2ccc(NC(=O)C3=CSCCO3)cc2)CC1	1.5	-0.0675
C=C1SC(=Nc2ccccc2Cl)N(C(=O)c2cc(OC)c(OC)c(OC)c2)C1(C)C	3.8	x
CN1CCC(N)CC1	1.5	x
CCSc1nnc(-c2cc(-c3cccs3)nc3ccccc23)o1	1.9	x
CC(Sc1nnc(-c2cccs2)n1-c1ccccc1)C(=O)NCc1ccc2c(c1)OCO2 (configuration not stated)	1.8	x
CN(C)C(CNC(=O)c1ccccc1SCC(=O)NCc1ccco1)c1ccccc1 (configuration not stated)	-0.6	x
COc1ccc(-n2ncc3c2ncn2nc(-c4ccccc4)nc32)cc1	-0.1	-1.36
CCOc1ccc(/C=N/C2=C(C#N)C3CCCCC3S2)cc1OC (configuration not stated)	0.5	0.474
Cc1noc(C)c1C(=O)Oc1ccc(-c2n[nH]nc2C#N)cc1	2.8	x
O=C(COC(=O)C1CC(=O)N(Cc2ccccc2)C1)Nc1ccc(SC(F)F)cc1 (configuration not stated)	-2.0	x
N=C1/C(=C/c2ccc(F)cc2)C(=O)N=C2SC(C(F)(F)F)=NN12	0.7	x
O=C(CN1CCCCCCC1)N/N=C/c1ccccc1C(F)(F)F	0.2	-0.566
NC(Cc1c[nH]c2ccccc12)C(=O)O (configuration not stated)	1.4&0.2	1.15&-0.181&0.0875
COCC(C)N1CC(C(=O)O)CC1=O (configuration not stated)	-0.8	0.123
CCN1/C(=C2/SC(=S)N(C)C2=O)Sc2ccc(S(=O)(=O)C(F)(F)F)cc21	-0.7	0.939
COc1cccc2c1Oc1ncccc1N(c1ccc(C(=O)NCCN(C)C)s1)C2	-2.4	-0.0775
CC(C)CC(=O)Nc1ccc2nc(SCc3cc(=O)n4ccsc4n3)sc2c1	6.3	0.54
CC(=O)OC1CC(C)(C)N(C(C)=O)C(C)(C)C1	-0.7	-0.68
CC1CCCCN1C(=O)c1ccc(C(=O)N2CCCCC2C)cc1 (configuration not stated)	-2.6	1.91
CC1CC(C)CN(C(=O)COC(=O)c2ccc(N3CCCC3=O)cc2)C1 (configuration not stated)	1.2	x
CC(C)N(C(=O)CSc1nnnn1-c1ccccc1)C(C)C	1.8	0.727
O=C(Nc1nc(-c2ccc(OC(F)(F)F)cc2)no1)NN1CCCCC1	1.4	x
CN(C)S(=O)(=O)c1ccc(C(=O)Nc2c3c(nn2-c2ccccc2)CSC3)cc1	-1.4	-0.999
C=C(C)C1CC=C(C)/C(=N\NC(=O)c2ccc(O)cc2)C1 (configuration not stated)	0.8	0.918
CCN(CC)C(=O)CC1(CC(=O)N(CC)CC)C(=O)N(C)C(=O)N(C)C1=O	1.6	-0.508
CCN(CC)S(=O)(=O)c1ccc(CNC(=O)c2ccc[nH]2)cc1	-0.8	x
CCOC(=O)c1c(NC(=O)NC(C)(C)C)sc2c1CCN(C)C2	4.3	x
CC1=[N+](S(=O)(=O)c2ccc(Cl)cc2)CCN1	x	2.83
C=CCOc1ccc2ccccc2c1/C=N/O	x	0.679
CCc1ccc(S(=O)(=O)N2CCn3cccc3C2c2ccc(OC)c(OC)c2)s1 (configuration not stated)	-2.3	1.55
CCCOC(=O)Cc1n[nH]c(=O)[nH]c1=O	0.0	-0.044
Cc1nc2ccc(Cc3ccc4nc(C)[nH]c4c3)cc2[nH]1	-17.7	-0.093
CCc1ccc(C(=O)NC(C)C2CCCO2)s1 (configuration not stated)	0.0	0.429
NS(=O)(=O)c1ccc(CCNC(=O)c2ccc(Cl)cc2)cc1	0.9	-0.533
CCOC(=O)c1c(/N=C/c2c(O)n(C)c3ccccc23)sc(C)c1C	1.9	x
CC(C)CN(C(=O)CSc1nc(N)cc(N)n1)C1CCS(=O)(=O)C1 (configuration not stated)	0.8	x
O=C(OCCN1C(=O)c2ccccc2C1=O)c1cc2ccccc2oc1=O	-1.4	x
COc1cc(C(=O)CSc2ccc(C)cc2)cc(OC)c1OC	1.0	x
Cc1c(Cl)ccc2c1NC(=O)C2(O)N1CCCC(C)C1 (configuration not stated)	0.2	-1.34
O=C(N/N=C/c1ccncc1)C1CCCCC1	-1.1	-0.931
CC(NC(=O)CN(C)C1CCS(=O)(=O)C1)c1ccccc1 (configuration not stated)	1.2	x
FC(F)(F)c1cccc(N2CCN(C3=Cc4ccccc4CC3)CC2)c1	0.4	x
O=C(c1ccccc1)N1CCC(c2ccncc2)CC1	3.7	0.744
COC(=O)NCC(c1ccc2c(c1)OCO2)N1CCN(c2ccccc2)CC1 (configuration not stated)	0.9	-2.16
Cc1c(-n2c(O)c(C3=c4ccccc4=NC3=O)sc2=O)c(=O)n(-c2ccccc2)n1C	0.7	-1.03
Nc1ccc(O)cn1	-0.4	-0.374
CC(C)C(NS(=O)(=O)c1ccc2c(c1)OCCO2)C(=O)OCc1cn2cc(Cl)ccc2n1 (configuration not stated)	-1.2	x
N#Cc1cccc(NC(=O)Cc2ccccc2)c1	0.1	0.901
COc1ccccc1NC(=O)CN1c2cccc3cccc(c23)S1(=O)=O	-1.3	x
O=C1CCCCC1Sc1nnc(-c2ccc3c(c2)OCO3)o1 (configuration not stated)	2.9	x
COC(=O)C1=C(C)NC(C)=C(C(=O)OC)C1C	0.6	x
CC(C)(CC(=O)O)CC(=O)N1CCN(c2ncccc2C#N)CC1	1.2	x
Cc1csc2c(=O)n(CCN3CCSCC3)c(=O)[nH]c12	x	-0.182
O=C(NCCN1CCOCC1)C1CCCN1S(=O)(=O)c1ccc(Cl)cc1 (configuration not stated)	1.6	x
Cc1ccc2c(Cl)c(C(=O)N3CC(C)OC(C)C3)sc2c1 (configuration not stated)	2.9	x
CCOC(=O)N1CCN(Cc2ccc(O)c(OC)c2)CC1	5.0	-0.126
Cn1c(=O)c2cc(S(=O)(=O)NC(C(=O)NC3CCCCCC3)c3ccccc3)ccc2n(C)c1=O (configuration not stated)	-3.4	1.86
O=C(O)CN1CC(=O)Nc2ccccc21	0.2	0.771

Single values from above.
`Cc1c(-n2c(O)c(C3=c4ccccc4=NC3=O)sc2=O)c(=O)n(-c2ccccc2)n1C` @ KSHV LANA nucl = -1.03
`Cc1csc2c(=O)n(CCN3CCSCC3)c(=O)[nH]c12` @ KSHV LANA nucl = -0.182
`O=C(NCCN1CCOCC1)C1CCCN1S(=O)(=O)c1ccc(Cl)cc1` (configuration not stated) @ BasE inh = 1.6
`COC(=O)C1=C(C)NC(C)=C(C(=O)OC)C1C` @ BasE inh = 0.6
`Cn1c(=O)c2cc(S(=O)(=O)NC(C(=O)NC3CCCCCC3)c3ccccc3)ccc2n(C)c1=O` (configuration not stated) @ KSHV LANA nucl = 1.86
`COc1ccccc1NC(=O)CN1c2cccc3cccc(c23)S1(=O)=O` @ BasE inh = -1.3
`COC(=O)NCC(c1ccc2c(c1)OCO2)N1CCN(c2ccccc2)CC1` (configuration not stated) @ KSHV LANA nucl = -2.16

Five compounds from above, ordered by the value under KSHV LANA nucl, low to high.
compound,KSHV LANA nucl
Cc1c(Cl)ccc2c1NC(=O)C2(O)N1CCCC(C)C1 (configuration not stated),-1.34
Cc1c(-n2c(O)c(C3=c4ccccc4=NC3=O)sc2=O)c(=O)n(-c2ccccc2)n1C,-1.03
CCOC(=O)N1CCN(Cc2ccc(O)c(OC)c2)CC1,-0.126
O=C(c1ccccc1)N1CCC(c2ccncc2)CC1,0.744
O=C(O)CN1CC(=O)Nc2ccccc21,0.771

(listing goes on)
SMILES	BasE inh	KSHV LANA nucl
CC(C)(C)C(=O)/C=C/Nc1ccc(C(=O)O)cc1	-3.5	0.107
O=C(/C=C/c1cc(Cl)c2c(c1)OCCCO2)Nc1ccc(-n2cnnn2)cc1	-0.2	x
NC(=O)C1=C(N)NC(=S)NC1c1ccccc1 (configuration not stated)	1.6	x
NNc1nc2ccccc2[nH]c1=S	-2.6	-0.055
CCOC(=O)N1CCN(C2CC(=O)N(c3ccc(I)cc3C)C2=O)CC1 (configuration not stated)	1.8	-0.492
O=C(COC(=O)c1c[nH]c(=O)[nH]c1=O)Nc1ccccc1	-1.3	x
O=C(N/N=C/c1ccc(-c2ccc(S(=O)(=O)Nc3ncccn3)cc2)o1)c1cccnc1	2.2	x
Cn1c(=O)cc(Cl)c2ccccc21	2.2	-0.347
CCCS(=O)(=O)c1nc(S(=O)(=O)c2ccc(Cl)cc2)c(N2CCC(O)CC2)s1	-0.5	-1.04
CN1N=C(C(C)(C)C)CSC1=Nc1ccc(F)cc1	0.5	2.45
Brc1ccc2c3c(ccc2c1)OCN(c1ccccc1)C3	2.6	x
O=C(CSc1ncnc2sccc12)N1CCC(c2nc3ccccc3o2)CC1	0.0	x
Cc1ccc(CNc2nc(C)c3nc(-c4ccccc4)oc3n2)cc1	-1.5	-0.012
Cc1[nH][nH]c(=O)c1N=Nc1ccccc1	2.7	-0.0695
CC(C)NC(=O)c1ccc2c(=O)n(CCc3ccccc3)c(=O)[nH]c2c1	0.1	-0.413
CCCCNC(=O)c1ccc(F)cc1Cl	1.6	-0.609
CC(=O)O[C@H]1C(=O)[C@@]2(C)[C@H]([C@H](OC(=O)c3ccccc3)[C@]3(O)C[C@H](OC(=O)[C@H](O)[C@@H](NC(=O)c4ccccc4)c4ccccc4)C(C)=C1C3(C)C)[C@]1(OC(C)=O)CO[C@@H]1C[C@@H]2O	x	-0.355
CNCC(=O)Nc1c(C)n[nH]c1C	1.4	x
COC(=O)C1C(=O)C2=C(CC1C)Nc1ccccc1NC2c1ccc(N(C)C)cc1 (configuration not stated)	-0.1	1.15
COC(=O)CN1C(=S)N(C)C(=O)/C1=C/c1ccco1	-6.6	0.49

Part of the list above, with values under each structure.
Second line of a record – BasE inh | KSHV LANA nucl
- O=C(N/N=C/c1ccc(-c2ccc(S(=O)(=O)Nc3ncccn3)cc2)o1)c1cccnc1
    2.2 | x
- NNc1nc2ccccc2[nH]c1=S
    -2.6 | -0.055

The listing continues:
SMILES	BasE inh	KSHV LANA nucl
O=C(NCc1ccccc1)c1ccccc1C(=O)c1ncc[nH]1	-1.3	0.505
Clc1nc(Cl)nc(OCCCOc2nc(Cl)nc(Cl)n2)n1	-0.2	-0.691
CCOC(=O)c1nc(NCc2ccc3c(c2)OCO3)c2ccccc2n1	0.2	0.297
CCOC(=O)c1ccc(NCc2ccccc2OC)cc1	2.5	0.417
CNC(=O)Cn1nc(-n2cccc2)c2c(C)cc(C)nc21	-0.9	1.17
O=C(CCCN1CCN(c2ccccn2)CC1)c1ccc(F)cc1	-2.6&0.0	0.245&-0.547&-1.72&0.269
c1ccc(CNc2ncnc3nc[nH]c23)cc1	0.7&-2.6	-0.024&0.0215
CN(Cc1cccs1)C(=O)COc1ccc(-c2nnco2)cc1	-0.3	x
N#Cc1ccccc1S(=O)(=O)Nc1ccccc1	1.1	x
O=C(CNC1CC1)Nc1c(Cl)cccc1Cl	-0.1	x
NCC1CCC(C(=O)Oc2ccc(CCC(=O)O)cc2)CC1 (configuration not stated)	x	0.371
O=C(/C=C/S(=O)(=O)c1ccc(Cl)cc1)c1ccc(F)cc1	1.4	x
CC(C)(C)SCC(=O)NCc1ccc(S(N)(=O)=O)cc1	0.7	x
C=CCn1c(CCc2ccc(OC(C)C)cc2)n[nH]c1=S	-0.6	-0.831
CCCCNC(=O)Nc1ccc(Br)cn1	-0.5	x
COc1cc2c(C#N)c(N(C)C(c3ccccc3)c3ccccc3)nc(N)c2c(N)n1	-1.6	x
CCN1C(=O)/C(=C2/C=CC=CN2C)N(c2ccccc2)C1=S	-3.2	-0.722
Cc1csc(Nc2ccc(F)c(Cl)c2)[n+]1C(C)C	1.5	x
CCCn1c(=O)n(C)c(=O)c2c(SC(C)c3nc4ccccc4c(=O)[nH]3)nc(C(C)(C)C)nc21 (configuration not stated)	1.9	x
O=C(/C=C/C=C/c1ccccc1)c1ccc(Cl)cc1	1.8	x
O=C(NC1CCCCC1)N1CCCC(c2nc(-c3ccc(Cl)cc3)no2)C1 (configuration not stated)	-1.8	-2.01
O=c1oc2ccccc2cc1-c1nnc(-c2cccc(Br)c2)o1	2.5	x
NC1=NN=C2CCCN3C(=C12)C=Cc1ccccc13	-0.9	x
NOCC(=O)N1CCOCC1	x	2.2
O=C(CSCc1cc(=O)[nH]c(=O)[nH]1)NCc1ccc(Cl)cc1	4.2	x
O=C1Nc2ccccc2SC1Nc1ccc(-c2nnc3n2CCCCC3)cc1 (configuration not stated)	-1.3	x
COC(=O)c1ccc(CS(=O)(=O)c2ccccc2C)o1	-0.1	-0.362
CC(C)c1ccc(/C=C/C(=O)CCC(=O)O)cc1	x	-1.39
CCOC(=O)N1CCN(C(=O)CNC(=O)c2cc(C)cc(C)c2)CC1	-0.2	x
O=C1C=CC(=O)N1CCc1ccc(Cl)cc1	0.4	-0.0505
CN(C(=O)CSc1nc2ccccc2c(=O)n1-c1ccc(F)cc1)C1CCS(=O)(=O)C1 (configuration not stated)	0.2	x
[O-]/[N+](=C\c1ccncc1)c1ccccc1	1.2	-0.0985
COc1cccc(C2=NOC(C(=O)N3CCCCC3)C2)c1 (configuration not stated)	-0.5	-0.776
CCn1c(=O)[nH]c2ccccc21	1.4	x
Cc1onc(-c2c(F)cccc2Cl)c1C(=O)ONC(=O)c1ccccc1	0.0	1.74
Cc1nc(/C(N)=N/OC(=O)c2c(-c3ccccc3Cl)noc2C)cs1	9.1	0.117
CC1=C(C#N)C(c2ccc(Br)cc2)C2=C(CCCC2=O)N1 (configuration not stated)	0.1	-0.973
O=S(=O)(NCc1ccccn1)C1=Cc2ccccc2CC1	1.2	x

Compounds shown so far containing bromine (four):
SMILES	BasE inh	KSHV LANA nucl
Brc1ccc2c3c(ccc2c1)OCN(c1ccccc1)C3	2.6	x
CCCCNC(=O)Nc1ccc(Br)cn1	-0.5	x
O=c1oc2ccccc2cc1-c1nnc(-c2cccc(Br)c2)o1	2.5	x
CC1=C(C#N)C(c2ccc(Br)cc2)C2=C(CCCC2=O)N1 (configuration not stated)	0.1	-0.973
